TRPV1 PAM: human TRPV1 potentiation; Q8NER1; TRPV1-expressing cells, Fluo-8 calcium influx, capsaicin EC20 potentiation; host cell line not named in the record; control for the full effect not named in the record; potentiation, % at 8.33 µM; 0.02% of 320,000 active; AID 540277; active means potentiation above 80%; inconclusive means 30% to 80%; inactive means below 30%; further: 0% is about no effect
Target sequence (Q8NER1 whole entry, looked up): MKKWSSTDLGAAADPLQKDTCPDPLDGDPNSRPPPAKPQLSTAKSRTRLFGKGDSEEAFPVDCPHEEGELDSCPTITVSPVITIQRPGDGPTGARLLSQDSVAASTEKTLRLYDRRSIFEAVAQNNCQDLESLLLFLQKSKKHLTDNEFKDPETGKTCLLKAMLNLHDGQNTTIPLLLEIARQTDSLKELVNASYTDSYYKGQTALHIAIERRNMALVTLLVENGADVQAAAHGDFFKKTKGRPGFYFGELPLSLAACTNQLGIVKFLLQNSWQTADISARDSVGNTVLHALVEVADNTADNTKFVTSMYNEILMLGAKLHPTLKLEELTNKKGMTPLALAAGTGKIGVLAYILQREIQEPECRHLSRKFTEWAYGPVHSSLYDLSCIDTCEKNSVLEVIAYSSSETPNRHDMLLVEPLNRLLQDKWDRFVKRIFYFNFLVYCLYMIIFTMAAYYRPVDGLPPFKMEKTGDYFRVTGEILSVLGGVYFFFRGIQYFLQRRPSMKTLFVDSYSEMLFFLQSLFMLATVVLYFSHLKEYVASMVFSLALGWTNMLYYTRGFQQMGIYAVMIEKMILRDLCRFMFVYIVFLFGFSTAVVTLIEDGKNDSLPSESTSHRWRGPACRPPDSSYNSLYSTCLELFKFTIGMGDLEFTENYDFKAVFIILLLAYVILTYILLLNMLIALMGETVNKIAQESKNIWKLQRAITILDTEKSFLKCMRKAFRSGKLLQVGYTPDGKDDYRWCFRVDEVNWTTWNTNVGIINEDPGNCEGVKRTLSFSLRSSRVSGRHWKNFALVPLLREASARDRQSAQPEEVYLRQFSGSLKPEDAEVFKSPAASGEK
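TRPV1-expressing cells were cultured overnight at 35.5C and loaded with Fluo-8 calcium dye for 40 to 90 min at room temperature. After a 10 s baseline, compound was added and calcium influx was read kinetically for 3 min (ex 480/em 520 nm).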
TRPML1 inh: blocks the human TRPML1 channel. TRPML1-inducible cells, Ca2+ dye fluorescence, FDSS; hits give low values; inhibition of EC80 agonist-evoked calcium signal. activity change, negative = inhibition, % (concentration not given with the values). 0.02% of 390,000 active; in the data active means activity change below about -50%; inconclusive means about -30% to -50%; inactive means above about -30%;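 further: stimulus is agonist 54-4 at its EC80 concentration; on the % scale 0 is the no-effect control and ±100 the full control effect; compound concentration not given in the record; the text of the record puts the active cut at -80%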
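Tet-induced TRPML1-DL cells loaded with Ca8 no-wash calcium dye were read kinetically on FDSS. Compound addition was followed by EC80 agonist 54-4 (4 uM final); inhibition was read over 110 s.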
Menin-MLL FL inh: menin-MLL binding inhibition, fluorescein peptide; Fluorescence polarization, fluorescein-MLL peptide displacement from menin; FP activity change, % at 61.4 µM; 290,000 tested, under 10 active; AID 1766; inconclusive = falling polarisation curve, or a change in total fluorescence; inactive = total fluorescence flat and polarisation flat or rising; no compound was filed as active; the % refers to the polarisation; negative = inhibition;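 further: % of control where 0% means no effect; inhibitors lower the polarisation; unlabelled MLL peptide was the positive control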
ClpP mod: qHTS Assay for Activators of ClpP; ATP-dependent Clp protease proteolytic subunit (Bacillus subtilis (strain 168)), P80244; purified B. subtilis ClpP, FRET peptide cleavage, 20 min; Potency, µM (doses to about 57.5 µM), inactives show top-dose activity change, negative = active; 1.9% of 340,000 active; AID 651965, 2013; active = well fitted falling curve with a large enough effect; inconclusive = small, poorly fitted or top-dose-only effect; inactive = no such curve, though single readings can be large or run the other way; further: potency means the concentration at half of the fitted maximal effect; the source files actives as falling curves though it sought activators and does not explain the sign; nearly all actives have a fitted effect of over 65% in size; many hits overshoot -100%
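Purified B. subtilis ClpP, 10 microg/mL final in Tris/HCl pH8 with KCl, BSA, glycerol and Tween-20, cleaved an Abz/nitrotyrosine-quenched decapeptide. Fluorescence (ex 320, em 430) was read at 0 and 20 min at room temperature. Delta was normalized to 5.8 microM ADEP and DMSO/no-enzyme controls.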
gsp agonist: agonists of gsp mutant (McCune-Albright syndrome); gsp mutant cells, cAMP HTRF, 30 min; control for the full effect not named in the record; 0.13% of 340,000 active; Potency, µM (doses to about 76.9 µM), for the others: at the highest dose activation (cAMP increase), actives largely listed as activators; active = well fitted activation curve with a large enough effect; inconclusive = small, poorly fitted or top-dose-only effect, or another doubt; inactive = no such curve, though single readings can be large or run the other way; cell line not stated here;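 further: phosphodiesterase inhibitor Ro 20-1724 added with compounds to block cAMP breakdown; potency means the concentration at half of the fitted maximal effect; nearly all actives have a fitted effect of over 60% in size; about a fifth of the inactives were tested at one dose only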
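Cells stably selected in G418 were plated at 2000/well, grown 16-24 hr, then given compounds in DMSO with the PDE inhibitor […] (300 uM solution added) for 30 min at 37C; cAMP was read by HTRF.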
gsp antag: antagonizes gsp, the McCune-Albright syndrome mutation | gsp-mutant cells, cAMP HTRF, 30 min; control for the full effect not named in the record | Potency, µM (titrated, usually from 76.9 µM), for inactives: top-dose activity change, negative = inhibition, hits mostly inhibitors | 0.4% of 340,000 active | AID 624288; active = falling curve of any shape with a large fitted effect; inconclusive = falling curve, mostly with a smaller effect; inactive = flat or rising curve; cell line not stated here;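 further: intracellular cAMP measured with PDE inhibitor Ro 20-1724 present during compound exposure; potency means the concentration at half of the fitted maximal effect; on the % scale 0 is the no-effect control and ±100 the full control effect; nearly all actives have a fitted effect of over 65% in size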
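Cells, 2000/well, grown 16–24 h in DMEM 10% FBS with 0.5 mg/ml G418, then compounds plus […] (300 uM addition stock), 30 min at 37C. cAMP read by HTRF (cAMP-d2 and anti-cAMP antibody-K in lysis buffer) after 30 min RT.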
Sfp inh: inhibitors of Bacillus subtilis Sfp phosphopantetheinyl transferase | Potency, µM, for the others: max response, negative = inhibition, usual class: inhibitors | Q9F4F7 | Biochemical Sfp PPTase activity, qHTS | AID 1490 | 3.5% of 310,000 active; active means well fitted inhibition curve with a large enough effect; inconclusive means small, poorly fitted or top-dose-only effect, or another doubt; inactive means no such curve, though single readings can be large or run the other way;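 further: the enzyme is Sfp with the accession as filed and its product quenches rhodamine fluorescence; potency means the concentration at half of the fitted maximal effect; 0% = enzyme reaction without inhibitor and -100% = no enzyme wells; top concentration of the series not given in the record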
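Fluorescence-quenching assay with 15 nM Sfp, 5 uM rhodamine-CoA and 12.5 uM BHQ-2-labelled ybbR peptide in pH 7.6 Hepes/MgCl2 buffer. Enzyme was pre-incubated with compound for 15 min at room temperature. Rate was taken from the 30-min fluorescence change (525/598 nm).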
The depositor's hits bear a star; u = inconclusive; x = no result given; & = joins results of further samples; [ ] = dose if it differs, or a comment. Hits appear at their usual frequency; 4.9% or so of the library scored in one or more.

Field names – A = TRPV1 PAM; B = TRPML1 inh; C = Menin-MLL FL inh; D = ClpP mod; E = gsp agonist; F = gsp antag; G = Sfp inh
> CC1CCN(CCCNC(=O)CN2CCN(Cc3ccc(Cl)cc3)C2=O)CC1
  A = -15.2	B = -0.2	C = -0.7	D = 0.5%	E = u	F = 3.3%	G = 2.7%
> COCCN1C(=O)N[C@@H](CCc2ccccc2)[C@H](C(C)=O)[C@H]1C
  A = -46.5	B = -9.8	C = 2.3[11.7 µM]	D = 0.7%	E = x	F = -1.5%	G = -2.0%&12.6%
> COc1cccc(NC(=O)CN2C(=O)NC(C)(c3ccc(C)cc3)C2=O)c1 (stereo not given)
  A = 0.9	B = -8.0	C = -1.5	D = x	E = 0.0%[15.4 µM]	F = -5.8%	G = 19.9%
> Cc1cc(CNC(=O)Nc2ccc3c(c2)OCO3)nn1C
  A = -6.8	B = -3.1	C = 0.6	D = 1.5%	E = -11.2%	F = 6.8%	G = 5.1%
> Cn1c(SCC(=O)OC2CCCCC2)nnc1-c1ccc(S(=O)(=O)N2CCCC2)cc1
  A = 6.6	B = 1.9	C = 3.0	D = -8.9%	E = -35.3%[inhibitor]	F = -25.1%	G = -9.1%
> CCS(=O)(=O)c1ccc(-c2csc(-c3ccc(Cl)cc3)n2)c(Cl)c1Cl
  A = 9.4	B = 17.1	C = 2.0	D = -27.3%	E = -26.3%	F = 15.5%	G = -19.7%
> CC(C)N(C(=O)c1sc2cc([N+](=O)[O-])ccc2c1Cl)C(C)C
  A = 2.7	B = 47.9	C = -2.2	D = 1.7%	E = -2.0%	F = 0.3%	G = 10.1%
> COc1cccc(/C=C/C(=O)Nc2ccc(N3CCOCC3)cc2)c1OC
  A = -4.9	B = 15.6	C = -1.3	D = x	E = -3.0%	F = 4.2%	G = 7.3%
> O=C(Nc1ccccc1)c1cccnc1N1CCOCC1
  A = -1.9	B = -1.7	C = 1.2	D = -1.6%	E = 4.4%	F = 5.8%	G = 9.3%
> O=[N+]([O-])c1cc([N+](=O)[O-])c2oc(-c3ccccc3)c(Br)c2c1O
  A = -32.7	B = 6.4	C = 2.0	D = x	E = 17.1%	F = -26.9%	G = 4.1%
> Cc1ccc(S(=O)(=O)NOCc2ccccc2)cc1
  A = x	B = 3.4	C = x	D = 0.6%	E = x	F = 10.0%	G = x
> CCOc1ccc(NC(=O)CCNS(=O)(=O)c2cccc3nonc23)cc1
  A = -1.8	B = 12.6&-1.0	C = 5.2	D = -2.5%	E = 1.9%	F = -19.0%	G = 26.0%
> COc1ccc(C(=O)NCCc2ccc(Cl)cc2)cc1S(=O)(=O)N1CCCCC1C (stereo not given)
  A = 3.0	B = 14.7	C = x	D = -0.4%	E = 15.3%	F = u	G = x
> CC(=O)c1c(C)oc2ccc(NS(=O)(=O)c3ccc(C(=O)O)cc3)cc12
  A = -15.5	B = -0.6	C = 5.1	D = x	E = 8.5%	F = 3.5%	G = -9.6%
> COc1ccccc1-c1ccc2nnc(SC)n2n1
  A = 0.5	B = -6.2	C = -0.2	D = -10.2%	E = -4.1%	F = 8.7%	G = 8.7%
> O=C(Nc1ccc(S(=O)(=O)Nc2nccs2)cc1)c1cc(-c2ccccn2)nc2ccccc12
  A = -2.0	B = 18.3	C = 0.9	D = x	E = 2.3%[15.4 µM]	F = -19.7%	G = -8.1%
> COc1ccc(C(=O)NCCC2=CCCCC2)cc1[N+](=O)[O-]
  A = -25.6	B = 4.3	C = -0.7	D = 3.1%	E = -0.4%[15.4 µM]	F = 1.2%	G = -5.6%
> Cc1sc2nc(CSc3ccc([N+](=O)[O-])c(C(F)(F)F)c3)[nH]c(=O)c2c1C
  A = 0.1	B = 11.2	C = u	D = -6.1%	E = 14.4%	F = 10.6%	G = 56.2µM*
> C[C@H]1CN([C@@H](C)CO)C(=O)CCCn2cc(nn2)CO[C@@H]1CN(C)C(=O)Nc1cccc(C(F)(F)F)c1
  A = x	B = -2.6	C = x	D = -0.1%	E = -88.1%[inhibitor]	F = x	G = x
> O=C(Cc1cccc(NC(=O)C2CCN(S(=O)(=O)c3cccc([N+](=O)[O-])c3)CC2)c1)Nc1cccc(C(=O)N2CCOCC2)c1
  A = x	B = 3.1	C = x	D = -0.5%	E = x	F = -1.8%	G = x
> O=C(Nc1ccccc1[N+](=O)[O-])C1=C(O)CCn2c1nc1ccccc12
  A = 2.7	B = 12.4	C = -0.3	D = 0.0%	E = -1.7%	F = 1.9%	G = 10.3%
> CCN(Cc1cc2ccccc2[nH]c1=O)S(=O)(=O)c1ccccc1
  A = -10.0	B = -16.2	C = 3.8	D = -10.0%	E = -12.3%	F = 3.0%	G = 0.2%
> NC1=NC(c2ccccc2)N=C(Nc2ccccc2)N1 (stereo not given)
  A = 15.5	B = x	C = 5.4	D = x	E = x	F = x	G = -0.9%
> COC(=O)C1Cc2c([nH]c3ccccc23)C(C(C)C)N1 (stereo not given)
  A = 28.1	B = 22.3	C = -5.5	D = -13.3%	E = -3.8%[15.4 µM]	F = 1.5%	G = -3.2%
> Cc1ccc(C)c(OCCC(=O)N(C)CC(=O)Nc2c(C)cccc2C)c1
  A = 27.1	B = -3.6	C = x	D = -0.1%	E = -55.6%[inhibitor]	F = 19.2%	G = x
> COc1ccccc1NS(=O)(=O)c1cccc(C(=O)NCC(c2cccs2)N2CCOCC2)c1 (stereo not given)
  A = -13.2	B = -7.3	C = x	D = -0.6%	E = -26.0%	F = -16.0%	G = x
> CC(=O)c1ccc(N2CCN(CC(=O)Nc3ccc4c(c3)OCCO4)CC2)cc1
  A = -9.5	B = 10.0	C = x	D = -5.6%	E = -1.4%	F = -2.2%	G = 9.1%

Reformatted with two lines to a compound: part of the list above
Each structure is followed by: TRPV1 PAM, TRPML1 inh, Menin-MLL FL inh, ClpP mod, gsp agonist, gsp antag, Sfp inh
- O=C(Cc1cccc(NC(=O)C2CCN(S(=O)(=O)c3cccc([N+](=O)[O-])c3)CC2)c1)Nc1cccc(C(=O)N2CCOCC2)c1
 : x, 3.1, x, -0.5%, x, -1.8%, x
- O=C(Nc1ccccc1[N+](=O)[O-])C1=C(O)CCn2c1nc1ccccc12
 : 2.7, 12.4, -0.3, 0.0%, -1.7%, 1.9%, 10.3%
- CCN(Cc1cc2ccccc2[nH]c1=O)S(=O)(=O)c1ccccc1
 : -10.0, -16.2, 3.8, -10.0%, -12.3%, 3.0%, 0.2%
- NC1=NC(c2ccccc2)N=C(Nc2ccccc2)N1 (stereo not given)
 : 15.5, x, 5.4, x, x, x, -0.9%
- COC(=O)C1Cc2c([nH]c3ccccc23)C(C(C)C)N1 (stereo not given)
 : 28.1, 22.3, -5.5, -13.3%, -3.8%[15.4 µM], 1.5%, -3.2%
- Cc1ccc(C)c(OCCC(=O)N(C)CC(=O)Nc2c(C)cccc2C)c1
 : 27.1, -3.6, x, -0.1%, -55.6%[inhibitor], 19.2%, x
- COc1ccccc1NS(=O)(=O)c1cccc(C(=O)NCC(c2cccs2)N2CCOCC2)c1 (stereo not given)
 : -13.2, -7.3, x, -0.6%, -26.0%, -16.0%, x

Bioassay records deposited in PubChem by National Center for Advancing Translational Sciences (NCATS).
